VDR inh: blocks the human vitamin D receptor; P11473; VDR-SRC2-3 peptide fluorescence polarization, 2 h; Potency, µM, without a hit: max response, negative = inhibition, actives largely listed as inhibitors; hit rate 0.93% among 400,000; active = well fitted inhibition curve with a large enough effect; inconclusive = small, poorly fitted or top-dose-only effect, or another doubt; inactive = no such curve, though single readings can be large or run the other way; also: series mostly up to about 120 µM
Target sequence (P11473 whole entry, looked up): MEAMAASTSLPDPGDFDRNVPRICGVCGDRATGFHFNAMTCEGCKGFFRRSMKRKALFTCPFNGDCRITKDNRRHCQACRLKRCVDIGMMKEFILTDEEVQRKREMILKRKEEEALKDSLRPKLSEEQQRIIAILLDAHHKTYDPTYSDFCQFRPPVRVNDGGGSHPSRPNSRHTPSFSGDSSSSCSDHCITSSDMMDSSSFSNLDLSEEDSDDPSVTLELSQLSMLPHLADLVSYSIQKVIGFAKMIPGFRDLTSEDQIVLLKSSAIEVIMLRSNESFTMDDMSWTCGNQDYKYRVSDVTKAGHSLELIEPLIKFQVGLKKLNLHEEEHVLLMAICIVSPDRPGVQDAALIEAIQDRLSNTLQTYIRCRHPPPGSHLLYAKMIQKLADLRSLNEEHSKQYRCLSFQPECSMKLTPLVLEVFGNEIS
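Two reagent solutions held at 4 deg C in the dark were dispensed, compounds pinned at 23 nl, and the mixture incubated 2 h at room temperature. Read-out: fluorescence polarization of VDR–SRC2-3 peptide binding.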
The depositor's hits bear a star; ? = inconclusive; & = joins results of further samples. % is scaled to controls: 0 for no effect and ±100 for the full control effect; potency is read from the fitted curve at half-maximal effect. The list is partial; rates above refer to the full screens.

CC(C)c1ccc(NC(=O)c2ccc3c(O)c(S(=O)(=O)c4ccccc4)c(=O)[nH]c3c2)cc1
  VDR inh = -2%

Cc1cccc(NC(=O)CC2C(=O)NCCN2C(=O)Nc2ccc(Cl)cc2)c1 (configuration not stated)
  VDR inh = -7%

C/C=C/C=C\C(=O)Nc1cccc(C2=NOC3(C2)C[C@@H](C(N)=O)N(C(=O)c2cc([N+](=O)[O-])cc([N+](=O)[O-])c2C)C3)c1 (some centres not stated)
  VDR inh = ?

O=C(NCc1ccc(Cl)cc1)c1ccc(NC(=O)N2CC3CCCN3c3ccccc32)cc1 (configuration not stated)
  VDR inh = 9%

CC(=O)OCC(=O)[C@@]1(O)CCC2C3CC(C)C4=CC(=O)C=CC4(C)C3C(O)CC21C (some centres not stated)
  VDR inh = -16%

O=C(O)C(CCc1ccccn1)c1ccccc1 (configuration not stated)
  VDR inh = -3%

Cc1ccc(Cl)cc1N1CCN(C(=O)c2cn(C)c3ccc(S(=O)(=O)N4CCCCC4)cc3c2=O)CC1
  VDR inh = 1%

COc1cc(CCNc2ccc3nnc(-c4ccccc4)n3n2)cc(OC)c1OC
  VDR inh = 0%

O=C(/C=C/c1ccco1)NC(=S)Nc1cccc(-c2nc3ccccc3s2)c1
  VDR inh = -20%

CN(c1ccc(OCC(=O)N2CCOCC2)cc1)S(=O)(=O)c1ccc(Cl)cc1
  VDR inh = 6%

CC1CCCN(C(=O)COC(=O)CNC(=O)c2sc3ccccc3c2Cl)C1 (configuration not stated)
  VDR inh = -3%

CS(=O)(=O)c1ccc(C(=O)Nc2nc(-c3ccco3)c(-c3ccco3)s2)cc1
  VDR inh = ?

CC/C(=N\NC(=O)CSc1ncccn1)c1ccc2c(c1)OCCO2
  VDR inh = -10%

Cn1c2ccccc2c2c(C(=O)NCC3CCCO3)cn(C3CCCC3)c(=O)c21 (configuration not stated)
  VDR inh = 7%

CC1CCCN(C(=O)C23CCC(C)(C(=O)C2)C3(C)C)C1 (configuration not stated)
  VDR inh = 10%

COc1ccc(Cl)cc1NC(=O)Cn1nc(Cc2ccncc2)c2ccccc2c1=O
  VDR inh = 3%

COc1ccccc1-c1cc(C(=O)Nc2ccccc2SC)no1
  VDR inh = -2%

O=C(CN1CCN(Cc2ccc(F)cc2Cl)C1=O)NCCc1ccc(Cl)cc1
  VDR inh = -16%&-8%

O=C(NCCSc1c(-c2ccccc2)[nH]c2ccccc12)c1cc2ccccc2oc1=O
  VDR inh = -15%

O=C(Nc1c(Cl)cc(Cl)cc1-c1nc2ccccc2s1)c1ccc(Br)o1
  VDR inh = -6%

Cc1cc(C)c2nc(-c3ccccn3)cc(C(=O)Nc3ccc(S(=O)(=O)Nc4cc(C)on4)cc3)c2c1
  VDR inh = ?

CCOc1ccc(C)cc1S(=O)(=O)n1ccnc1
  VDR inh = -9%

CCN(CC)CCN1C(=O)C2C(C(=O)Nc3ccc(Br)cc3)C3C=CC2(O3)C1C(=O)NC1CCCCC1 (configuration not stated)
  VDR inh = 2%

Cc1cccc2sc(NC(=O)c3cccc(S(=O)(=O)N4CCc5ccccc54)c3)nc12
  VDR inh = 13%

Cc1ccccc1CN1c2ccccc2-c2nc(SCC(=O)Nc3cc(F)ccc3F)ncc2S1(=O)=O
  VDR inh = 5%

C/C(CC(=O)Nc1ccc2c(c1)OCO2)=N\NC(=O)OC(C)(C)C
  VDR inh = 0%

COc1ccc(/C=C2\CCCC3C2=NC(=S)NC3c2ccc(OC)cc2)cc1 (configuration not stated)
  VDR inh = -18%

COc1ccc(C(=O)N/N=C/c2ccc(OC(=O)c3ccccc3)cc2)cc1
  VDR inh = 10%

CCOC(=O)Cc1csc(NC(=O)c2cc(=O)c3ccccc3o2)n1
  VDR inh = -3%

Cc1c(C=O)c2ccccc2n1CC(=O)NCc1ccccc1
  VDR inh = 1%

O=C(NCCC1=CCCCC1)C1CCN(S(=O)(=O)N2CCOCC2)CC1
  VDR inh = 8%

CC1CCC(NC(=O)N(CCCl)N=O)CC1 (configuration not stated)
  VDR inh = 6%&-2%

COc1ccc(-c2cc(-c3ccc(OC)c(OC)c3)n[nH]2)c(O)c1
  VDR inh = -17%

Cc1cn([C@H]2C[C@H](O)[C@@H](CCC(=O)NCCCn3ccnc3)O2)c(=O)[nH]c1=O
  VDR inh = 1%

COc1ccc(CN2CCc3c(c(=O)n4ncc(C(=O)N5CCN(c6ccccc6F)CC5)c4n3C)C2)cc1
  VDR inh = 15%

Cc1ccc(N2CCN(C(=O)c3ccccc3NC(=O)C3CC=CCC3C(=O)O)CC2)cc1 (configuration not stated)
  VDR inh = 10%

COc1cccc(C2SCC(=O)N2c2ccc(C)cc2)c1OC (configuration not stated)
  VDR inh = 7%

CC(C)(C)OC(=O)NNC(=S)NCc1ccc(Cl)cc1
  VDR inh = 1%

CC(=O)OC(C)(C)C1Cc2cc3ccc(=O)oc3cc2O1 (configuration not stated)
  VDR inh = 24%&-8%

Cc1ccc(CNS(=O)(=O)c2ccc(C(C)(C)C)cc2)n1C
  VDR inh = 9%

C=CCn1c(SCc2nc3ccccc3[nH]2)nnc1-c1cccc(OC)c1
  VDR inh = 0%

CC1(C)CCC(=O)c2ccccc21
  VDR inh = -18%

Cc1c(O)ccc2c3c(c(=O)oc12)CCC(C)C3 (configuration not stated)
  VDR inh = 22%

CCN(Cc1ccncc1)C(=O)C1CCC(=O)N(Cc2ccc(Cl)cc2)C1 (configuration not stated)
  VDR inh = -10%

C=CCN(C(=O)CCC(=O)O)C1CC(=O)N(c2ccc(OCCC)cc2)C1=O (configuration not stated)
  VDR inh = -21%

c1ccc(C(Nc2cccnc2)c2ccccc2)cc1
  VDR inh = -3%

Cc1[nH]c(=O)[nH]c(=O)c1S(=O)(=O)N1CCCC(C(=O)NCc2ccc3c(c2)OCO3)C1 (configuration not stated)
  VDR inh = 4%

Cn1c(=O)[nH]c(=O)c2c1nc(Br)n2Cc1ccccc1Cl
  VDR inh = -18%

COc1ccc(CCNC(=O)Cn2c(=O)c3cccn3c3ccc(F)cc32)cc1OC
  VDR inh = 4%

Cc1ccc(S(=O)(=O)NCc2ccccc2)cc1C(=O)NCC1CCCO1 (configuration not stated)
  VDR inh = -6%

CC1=NN(c2cccc(F)c2)C(=O)/C1=C/c1ccc(N(C)C)cc1
  VDR inh = -4%

Cc1ccc(Nc2nnc(SC(C)C(=O)NCC3CCCO3)s2)cc1 (configuration not stated)
  VDR inh = 19%

CCCOc1ccc(CNC(=O)C(CC)n2nc(C)c3sc4ccccc4c3c2=O)cc1 (configuration not stated)
  VDR inh = 16%

O=C(/C=C/Nc1ccccc1Oc1ccccc1)c1ccco1
  VDR inh = -4%

COc1ccccc1C(CC(=O)O)c1ccc2c(c1)OCO2 (configuration not stated)
  VDR inh = 1%

CCN(CC)CCSc1nc(O)c(-c2ccccc2)c(=O)[nH]1
  VDR inh = 6%

COc1cc(Nc2ncc3c(n2)CCN(Cc2cc(F)cc(F)c2)C3)cc(OC)c1
  VDR inh = 11%

Cc1ccc(NC(=O)CSc2nc3sc(C)cc3c(=O)n2C)cc1
  VDR inh = -15%

Cc1ccc2nc(SCC(=O)Nc3c(C)n(C)n(-c4ccccc4)c3=O)[nH]c2c1
  VDR inh = -9%

Cc1cc(C(=O)NCc2ccco2)cs1
  VDR inh = 0%

CCOC(=O)C1CCN(C(=O)CCc2ccc(S(=O)(=O)NC(C)C)cc2)CC1
  VDR inh = -21%

Cc1ccc(-c2csc(=Nc3ccccc3)n2CCCO)cc1
  VDR inh = -6%

COc1cc2c(cc1OC)C(COc1ccccc1OC)N(C(=O)c1ccco1)CC2 (configuration not stated)
  VDR inh = 10%

COCCCn1cnc2c(c1=O)c1nc3ccccc3nc1n2-c1ccc(C)cc1
  VDR inh = -9%

CCN(CC)CCn1c2ccccc2c2cnc(N)c(C#N)c21
  VDR inh = -4%

Cc1c(C(=O)NCc2ccccc2CN2CCCC2)oc2c(F)cccc12
  VDR inh = -24%

COC(=O)CSc1nc(N)c(C#N)c(-c2ccc(O)cc2)c1C#N
  VDR inh = 6%

COc1ccc(N2CCN(S(=O)(=O)CCNC(=O)C3CC3)CC2)cc1
  VDR inh = 6%

Cc1ccc(S(=O)(=O)N2CCOCC2)cc1NC(=O)COC(=O)c1cccnc1Cl
  VDR inh = -8%

Cc1cc(C)cc(OCC(=O)OCCN2C(=O)c3ccccc3C2=O)c1
  VDR inh = 5%

COc1ccc(CCC(=O)NNC(=S)Nc2cccc(C(C)=O)c2)cc1
  VDR inh = -12%

CSCC[C@H](NC(=O)OC(C)(C)C)C(=O)NCC1CCC(C(=O)O)CC1 (some centres not stated)
  VDR inh = -26%

COc1ccc(C(=O)Nc2ccnc(-c3cccnc3)n2)cc1
  VDR inh = -19%

COC(=O)Cc1cc(=O)n(-c2ccccc2)[nH]1
  VDR inh = 27%

CCOc1ccc(C(=O)n2cc(C(=O)OC)c3ccccc32)cc1
  VDR inh = -10%

COc1ccc(C(=O)NCC(=O)OCC(=O)c2ccc3c(c2)NC(=O)CO3)cc1
  VDR inh = 3%

CCOC(=O)c1[nH]cnc1C(=O)Nc1cccc(Cl)c1
  VDR inh = 3%

C/C(=N\OCC(=O)N/N=C/c1ccccc1)c1cccs1
  VDR inh = 5%

Cc1cnc(NC(=O)CC2OC(=O)c3ccccc32)s1 (configuration not stated)
  VDR inh = 11%

O=[N+]([O-])c1cc(S(=O)(=O)c2ccc(N3CCCCC3)c([N+](=O)[O-])c2)ccc1N1CCCCC1
  VDR inh = -5%

c1coc(C2Nc3ccccc3-c3nc4ccccc4n32)c1 (configuration not stated)
  VDR inh = 4%

CN(CC(=O)NCCCN1CCOCC1)S(=O)(=O)c1ccc(F)cc1
  VDR inh = -6%

COc1ccc(C2CC(=O)c3cc(-c4nc(-c5cccc([N+](=O)[O-])c5)cs4)c(=O)n(-c4ccccc4)c3C2)cc1 (configuration not stated)
  VDR inh = -11%

O=C(Cc1c[nH]c2ccccc12)N1CCN(S(=O)(=O)c2cccc(Cl)c2Cl)CC1
  VDR inh = 10%

CCN(CC(=O)Nc1ccc(OC)cc1)C(=O)CSCc1ccc(C)cc1
  VDR inh = ?

CCOc1ccc(OCC)c(NC(=O)CC2Oc3ccc(C)cc3NC2=O)c1 (configuration not stated)
  VDR inh = -12%

CCN(CC)C(=O)c1sc2nc(-c3ccncc3)[nH]c(=O)c2c1C
  VDR inh = 0%

CC(=O)Oc1cccc(C(=O)Nc2cccc(C(=O)Nc3ccccc3C(=O)O)c2)c1
  VDR inh = 15%

CCC(C(=O)NCCCc1ccccc1)n1nc(C)c2c(C)n(-c3ccccc3)nc2c1=O (configuration not stated)
  VDR inh = -16%

Cc1ccc(OCc2cc(C(=O)N3CCCCCCC3)no2)cc1C
  VDR inh = -8%

CSCCC(NS(=O)(=O)c1ccc(C)cc1)C(=O)N1CCN(C(C)=O)CC1 (configuration not stated)
  VDR inh = -9%

CC(=O)C1CCC2C3CC=C4CC(SC(=N)N)CCC4(C)C3CCC12C (configuration not stated)
  VDR inh = -11%

CC1CC(C)CN(C(=O)CN2C(=O)NC3(CCCCCC3)C2=O)C1 (configuration not stated)
  VDR inh = -2%

O=C(Nc1ccc(S(=O)(=O)Nc2ncccn2)cc1)c1cncc(Br)c1
  VDR inh = -16%

Cc1cc(-c2nc3cc(F)ccc3s2)ccc1N
  VDR inh = -6%

CN(CCc1ccc(Cl)c(Cl)c1)C[C@@H](O)COc1ccc(NS(C)(=O)=O)cc1
  VDR inh = -13%

COc1ccc(C(=O)CSc2nc(C)cc(C)n2)cc1[N+](=O)[O-]
  VDR inh = -5%

Cc1cc(N2CCCCC2)nc2ccc(NC(=O)CCC(=O)NCCC(C)C)cc12
  VDR inh = 10%

CC1=C(C(=O)Nc2ccccc2C(F)(F)F)C(c2ccc(C)s2)NC(=S)N1 (configuration not stated)
  VDR inh = -9%

O=C(O)c1ccc2c(c1)C(=O)N(NC(=O)c1ccccc1)C2=O
  VDR inh = -8%

Cc1ccc(S(=O)(=O)/N=C(\N)Nc2nc(C)c3cc(C)ccc3n2)cc1
  VDR inh = 5%

CCOc1cc(/C=C2/N=C(c3ccc(C(C)(C)C)cc3)OC2=O)cc(Cl)c1OS(C)(=O)=O
  VDR inh = -12%

COc1ccc(N2CCN(c3c(S(=O)(=O)c4ccccc4)cnc4ccc(OC)cc34)CC2)cc1
  VDR inh = -21%

O=C(CSc1ncnc2sccc12)Nc1ccccc1
  VDR inh = 15%

CCOC(=O)c1c(NC(=O)C2C3CCC(O3)C2C(=O)O)sc(C)c1-c1ccc(C)cc1 (configuration not stated)
  VDR inh = -26%

Continued (4 carried over from the part before).
CCOc1cc(/C=C2/N=C(c3ccc(C(C)(C)C)cc3)OC2=O)cc(Cl)c1OS(C)(=O)=O
  VDR inh = -12%

COc1ccc(N2CCN(c3c(S(=O)(=O)c4ccccc4)cnc4ccc(OC)cc34)CC2)cc1
  VDR inh = -21%

O=C(CSc1ncnc2sccc12)Nc1ccccc1
  VDR inh = 15%

CCOC(=O)c1c(NC(=O)C2C3CCC(O3)C2C(=O)O)sc(C)c1-c1ccc(C)cc1 (configuration not stated)
  VDR inh = -26%

O=C(/C=C/c1cccc(Cl)c1)NNC(=O)c1ccncc1
  VDR inh = 15%

Cc1onc(-c2ccccc2Cl)c1C(=O)Oc1ccc(Br)cc1
  VDR inh = -7%

Cc1ccc(-n2c(C)cc(/C=N/NC(=O)c3ccncc3)c2C)c(C)c1
  VDR inh = 1%

Cn1c(=O)n(Cc2ccccc2)c(=O)c2c1nc1n2CCCN1CCc1ccccc1
  VDR inh = -5%

COc1ccc(-c2cc([C@H]3[C@H]4C=CC[C@@H](C)[C@@H]4C(=O)N3Cc3ccccc3)ccc2F)cc1OC
  VDR inh = -10%

O=C(COc1ccccc1)N(CCc1ccccc1)c1nc(-c2ccc(F)cc2)cs1
  VDR inh = -13%

CC(NC(=O)C1CCC(C(=O)NC(C)c2ccccc2)CC1)c1ccccc1 (configuration not stated)
  VDR inh = 2%

CN1CCN(NC(=O)c2cn(-c3ccccc3)nc2-c2ccc(OC(F)F)cc2)CC1
  VDR inh = -7%

CC1(C)CC=C(NNC(=O)c2cccnc2)C(=O)C1
  VDR inh = 1%

COc1ccc(NC(=S)NC(=O)C2CCC2)cc1
  VDR inh = -3%

Source: PubChem (National Center for Advancing Translational Sciences (NCATS))
